Assay outcomes (PubChem BioAssay)
GIV Gai3 FP: inhibitors of GIV peptide binding to Galpha-i3, primary screen, biochemical, fluorescence polarization, FITC-GIV GBA peptide, rat Galphai3; percent of control (FP), % (no concentration beside the values); 210,000 compounds, 0.42% hits; Guanine nucleotide-binding protein G(i) subunit alpha-3 (Rattus norvegicus), P08753; 90 min; hits give low values; scaled: aluminum fluoride 0%, vehicle 100%; AID 1224905, 2016;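 active = replicate mean at 85% of control or lower, very high polarization wells dropped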;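 note: wells of about 15 µL received 100 nL stock; the first replicate is given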
Target sequence (P08753 whole entry, looked up): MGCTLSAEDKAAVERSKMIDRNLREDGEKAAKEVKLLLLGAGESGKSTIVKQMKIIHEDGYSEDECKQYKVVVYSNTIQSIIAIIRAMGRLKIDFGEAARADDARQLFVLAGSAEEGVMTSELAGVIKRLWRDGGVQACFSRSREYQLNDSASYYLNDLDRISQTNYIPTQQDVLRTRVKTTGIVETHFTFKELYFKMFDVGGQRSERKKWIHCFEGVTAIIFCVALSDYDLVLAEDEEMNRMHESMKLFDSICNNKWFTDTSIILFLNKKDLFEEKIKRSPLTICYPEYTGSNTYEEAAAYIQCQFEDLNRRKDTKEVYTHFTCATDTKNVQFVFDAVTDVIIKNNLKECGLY
Sa growth inh: S. aureus growth inhibition at 42 and 30 °C, primary screen, LtaS inhibitor project, RN4220, two temperatures; OD600, 20 h, 42 °C; hits give low values; relative growth, % (no concentration beside the values); 170,000 compounds, 0.53% hits; AID 720641, 2013;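 active = growth at 42 °C up to 50% and 20 or more points under that at 30 °C, or under 10% at both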;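 note: 300 nL library stock went into each well; scaled to the means of positive and negative controls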
HCMV NEC inh: inhibitors of HCMV UL50-UL53 interaction, biochemical, HTRF; inhibition, % (no concentration beside the values); normalized percent inhibition; AID 1918969, 2023; 190,000 compounds, 0.15% hits; HCMV UL50-UL53 nuclear egress complex (human cytomegalovirus);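 active = both replicates at 50% or more, plus weaker picks with an unusually low signal ratio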;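 note: stock transfer was 100 nL into about 20 µL; 0% = negative control wells and 100% = wells with untagged competitor protein; inactives centre near -12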
Sa growth inh second temp: recorded beside Sa growth inh, whose call it bears; relative growth, %; measured here: growth at 30 °C;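 optical density after 20 h as mean of two plates; 100% = untreated growth and lower means inhibition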
Numbers without * were called inactive; nt = not tested or not shown; & = joins results of further samples.

SMILES	GIV Gai3 FP	Sa growth inh	Sa growth inh second temp	HCMV NEC inh
Clc1cc(N=Cc2cccnc2)ccc1N=Cc1cccnc1	nt	118	90	-8
COc1ccc(NC(=O)c2cc3ccc(O)cc3oc2=Nc2ccc(C(=O)O)cc2)cc1	213	87	46	nt
COC(=O)/C=C1/NCC(O)CNC1=O (stereo not drawn)	106	89	91	-7
CC(C)=N/N=c1\sc2ccccc2n1C	nt	87	89	-20
CCN(CC)c1nc(NC(C)(C)C)nc(NC(C)(C)C)n1	nt	106	55	-5
CCN(CC)Cc1c(C)[nH]c2ccccc2c1=O	nt	106	92	14
O=C(NC1CCCC1)C1CCCN(C(=O)c2cc(-c3cccnc3)n[nH]2)C1 (stereo not drawn)	100	nt	nt	-15
O=C1OC(Nc2ccc3ncccc3c2)c2ccccc21 (stereo not drawn)	99	88	52	-32
CC(=O)Nc1ccccc1C(=O)OCC(=O)Nc1ccc(S(N)(=O)=O)cc1	99	104	81	-4
CCOC(=O)c1c(NC(C)=O)c2c3c(sc2n1CC(=O)Nc1ccc(OCC)cc1)CCCC3	104	nt	nt	14
CC(C)c1ccc2c(c1)NC(c1ccncc1)=NC(c1cccs1)=N2	100	102	94	9
COc1ccc2cc3c(nc2c1)N(C(=O)COc1ccc(Cl)cc1)CC3	105	nt	nt	-24
O=C(NCc1ccccc1)c1cc(S(=O)(=O)N2CCCCC2)ccc1N1CCOCC1	nt	98	99	8
COc1ccc(-c2nc3sc(CCNC(=O)C(=O)Nc4cc(F)ccc4F)c(C)n3n2)cc1	103	98	88	nt
COc1ccc(NC(=O)CSCC(N)=O)cc1	104	69	90	-22
CC1CN(S(=O)(=O)c2ccc3c(c2)n(C)c(=O)c(=O)n3C)c2ccccc2S1 (stereo not drawn)	107	96	98	0
Cn1c(-c2ccccc2)n[nH]c1=S	102	108	87	nt
CC1(C(=O)NC2CCCCC2)Cn2c(cc3occc32)C(=O)N1Cc1cccc(Cl)c1 (stereo not drawn)	102	nt	nt	-6
Cc1ccc(Cl)cc1NC(=O)COC(=O)c1n[nH]c2ccccc12	nt	77	94	-8
CN(c1ccc(OCC(=O)NCC(F)(F)F)cc1)S(=O)(=O)c1ccccc1	nt	95	95	7
O=C(NCc1ccc2c(c1)OCO2)C1CCCCC1	nt	89	89	3
Cc1csc(-n2[nH]c(C)c(CCC(=O)Nc3ccc(Br)cc3)c2=O)n1	102	nt	nt	-24
Cc1cccc(NC(=O)C23CC4CC(C2)CC(n2nnc(C)n2)(C4)C3)c1	106	115	93	nt
Cc1cc(C)cc(NC2=C(c3ccccc3)C(=O)c3ccccc32)c1	102	109	84	-25
COc1ccc(/C=C(\C#N)c2ccc(OC)cc2)cc1	109	133	102	27
Cc1ccc(-c2nn(-c3ccc(F)cc3F)c3c2cnc2c(F)cccc23)cc1	102	76	89	nt
COc1ccc(CCNC(=O)C2=C(C)C(=O)OC23CCCCC3)c(OC)c1OC	103	107	92	-21
Cc1cc(C(=O)N2CCCC2)c2c(C)nn(-c3ccccc3)c2n1	101&100	81	86	-18&-29
COc1ccc(/C=C2\SC(=Nc3cc(C)cc(C)c3)NC2=O)cc1OC	110	nt	nt	-18
CSc1nc(=O)c2c(n1C)NC(=O)CC2c1ccccc1OC(C)C (stereo not drawn)	101	98	90	-7
Cc1oc2ncn(C)c(=O)c2c1C(=O)Nc1ccc(F)cc1	105	110	79	-15
O=C(NCc1ccco1)c1ccc2c(c1)CCO2	98	97	90	-15
N#CCc1n[nH]c(=O)c2ccccc12	nt	85	85	-9
Cn1c(=O)c2c(nc(NCCOCCO)n2Cc2ccccc2Br)n(C)c1=O	102	nt	nt	-18
CCn1ccc2cc(S(=O)(=O)N3CCCN(C(=O)Nc4ccc5c(c4)OCO5)CC3)ccc21	102	nt	nt	-11
Cc1cc(C(=O)OCc2cscn2)c2ccccc2n1	nt	105	75	-37
CCn1nnc(NC(=O)c2ccccc2)n1	101	97	79	-10
OC(CNC1Cc2ccccc2C1)c1ccccc1 (stereo not drawn)	104	131	99	4
CSc1nnc(SCc2nc3ccccc3[nH]2)s1	106	96	96	10
Cc1onc(-c2ccccc2)c1C(=O)OCC(=O)N1CCCc2ccccc21	nt	88	91	-17
CCOC(=O)c1c(NS(=O)(=O)c2ccc(NC(C)=O)cc2)sc2c1CCC2	106	nt	nt	11
O=C(Cc1ccccc1)NCCc1c[nH]c2ccccc12	108	96	94	nt
CC(=O)c1ccc(NS(=O)(=O)c2cccc(S(=O)(=O)c3ccc(Cl)cc3)c2)cc1	109	110	88	2
CN1C(=O)Cc2cc(S(=O)(=O)CCC(=O)Nc3cccc(C(F)(F)F)c3)ccc21	102	98	92	nt
COc1ccc(NS(=O)(=O)c2ccc(N3C(=O)CC4(CCCC4)C3=O)c(Cl)c2)c(OC)c1	103	98	78	-21
COc1cccc(C(=O)N2c3ccccc3C(N(C(=O)C(F)(F)F)c3ccccc3)CC2C)c1 (stereo not drawn)	101	nt	nt	-15
CCOc1ccc(S(=O)(=O)/N=C(\N)c2ccccc2)cc1	99	112	87	nt
O=C(NC1CCCC1)C1CCCN(c2nc3ncccc3n3cccc23)C1 (stereo not drawn)	108	nt	nt	9
Cc1oc(-c2ccno2)cc1S(=O)(=O)NCc1ccccn1	109	nt	nt	-20
FC(F)(F)C1CCCN(c2nsc3ccccc23)C1 (stereo not drawn)	nt	-0.4*	-0.5*	-4
COc1ccc(N2CCN(c3ncnc4sc(C(=O)NCCCN5CCOCC5)c(C)c34)CC2)cc1	106	nt	nt	-46
Clc1ccccc1-c1nn2cnnc2s1	100	nt	nt	-4
COc1cc(C(F)(F)F)nc2c(I)c(C(C)(C)C)nn12	103	100	80	-19
CCCC1C(C#N)=C(N)SC(N)=C1C#N	nt	86	58	-11
CSc1nc(Sc2ccccc2)c(C#N)c(Sc2ccccc2)n1	102	98	73	-1
COc1ccc(-c2cc(OC(=O)c3ccccc3Cl)c3c(C)oc(C)c3c(=O)c2)cc1OC	106&123	109	87	-42&-54
O=C(N/N=C/c1ccc(F)cc1)c1n[nH]c2c1CCC2	100	89	87	-29
O=C(CSc1nc(-c2ccccc2)no1)NCCC1=CCCCC1	102	nt	nt	-9
Cc1ccccc1CN1CCC(CNC(=O)c2cc3ccc4cccnc4c3[nH]2)CC1	102	79	91	nt
Cc1cc(N/C=C(\C#N)C(=O)c2cc(C)oc2C(F)(F)F)no1	105	99	87	-7

Carrying on.
SMILES	GIV Gai3 FP	Sa growth inh	Sa growth inh second temp	HCMV NEC inh
Cc1ccc(SC(CC(=O)c2ccc(C(C)(C)C)cc2)C(=O)O)cc1 (stereo not drawn)	nt	98	81	7
O=C(O)COc1ccc(NC(=O)c2ccccc2F)cc1	110	93	106	5
N#CCOc1ccc(Cl)c(Cl)c1	106	101	97	-25
CCc1ccc(NS(=O)(=O)c2ccc3c(c2)CCCN3C(C)=O)cc1	104	120	83	nt
C=CCOc1cccc(C2c3c(oc4ccccc4c3=O)C(=O)N2c2ccccn2)c1 (stereo not drawn)	106	96	79	-12
COc1ccc(Cc2nnc3sc(-c4cnccn4)nn23)cc1	107	nt	nt	-60
COC(=O)c1cnn2c1NCN(Cc1ccccc1)C2	100	99	81	nt
CCOC(=O)c1cn(CC)c2cc(F)c(F)cc2c1=O	102	98	85	nt
C=CCN1C(=O)C(CC(=O)NCC)SC1=Nc1ccccc1OC (stereo not drawn)	104	108	80	-10
CCN(CC)C(=O)CSc1nc2cc3c(cc2c(=O)n1Cc1ccc(C(=O)NCCc2ccc(OC)c(OC)c2)cc1)OCO3	104	109	87	nt
CC(C)c1nc2ccccc2n1CCCOc1ccccc1	107	104	75	nt
CC(C)c1ccc(NC(=O)Cn2c(=O)n(CC3CCC(C(=O)NCCc4ccccc4)CC3)c(=O)c3ccccc32)cc1 (stereo not drawn)	101	114	95	3
Cc1cccc(NC(=O)c2cccnc2Oc2ccccc2)c1C(=O)O	97	98	85	-6
O=c1[nH]c2ccccc2cc1-c1noc(-c2ccccc2)n1	nt	96	98	3
c1ccc(CCC2CCCCN2)cc1 (stereo not drawn)	104	110	95	7
NC(=O)C1CCN(CC(O)COc2ccc(F)cc2)CC1 (stereo not drawn)	101	105	89	-26
CC(C)c1cnc2c(c1SCC(=O)Nc1ccc(OC(F)(F)F)cc1)c(=O)n(C)c(=O)n2C	103	93	95	nt
COc1ccc(CCNC(=O)c2nc(S(C)(=O)=O)ncc2Cl)cc1OC	100	59	24	nt
COc1ccc(Nc2cc(C)nc(-c3ccccc3)n2)cc1	109	73	58	nt
COc1ccc(CNC2CCCC2)cc1	109	99	88	-13
COc1ccc(CCNC(=O)c2nc(SCc3ccc(F)cc3)ncc2Cl)cc1OC	105	102	76	-14
Cc1nc(C(F)(F)F)ccc1C(=O)Oc1ccc(OC(F)(F)F)cc1	107	90	95	-14
O=S(=O)(NCc1ccccc1)c1ccc(-n2cccn2)cc1	105	93	89	-21
COC(=O)c1cc(S(=O)(=O)NCCCN2CCc3ccccc3C2)c[nH]1	102	99	104	1
CCc1nc(NCCN2CCOCC2)c(C#N)c2c1CCCC2	100	114	75	nt
CCCC(=O)NCCc1c2n(c3ccc(OC)cc13)CCCc1ccccc1-2	99	nt	nt	-25
O=C(CN1C(=O)c2cccc3cccc1c23)N(Cc1ccccc1)Cc1ccccc1	97	107	100	nt
Cc1c(C#N)c(NC(=O)CSC(=S)N2CCCC2)n(Cc2ccco2)c1C	nt	79	70	-37
CC(C)N=C(Nc1ccc(Cl)cc1)c1cccnc1	99	nt	nt	3
NNC(=O)c1csc(-c2ccncc2)n1	112	104	98	5

Entries of single compounds from above. Order of values: GIV Gai3 FP | Sa growth inh | Sa growth inh second temp | HCMV NEC inh
`COc1cc(C(F)(F)F)nc2c(I)c(C(C)(C)C)nn12` is listed as 103 | 100 | 80 | -19
`CC1(C(=O)NC2CCCCC2)Cn2c(cc3occc32)C(=O)N1Cc1cccc(Cl)c1` (stereo not drawn) is listed as 102 | nt | nt | -6
`COc1ccc(/C=C2\SC(=Nc3cc(C)cc(C)c3)NC2=O)cc1OC` is listed as 110 | nt | nt | -18
`COc1ccc(CCNC(=O)c2nc(S(C)(=O)=O)ncc2Cl)cc1OC` is listed as 100 | 59 | 24 | nt
`O=S(=O)(NCc1ccccc1)c1ccc(-n2cccn2)cc1` is listed as 105 | 93 | 89 | -21

Remaining list, next part
SMILES	GIV Gai3 FP	Sa growth inh	Sa growth inh second temp	HCMV NEC inh
COc1ccccc1CN(C)C(C)C(=O)Nc1ccc(S(N)(=O)=O)cc1 (stereo not drawn)	nt	102	95	-2
CCCNC(=O)CN(C)c1nn2c(NC3CCCC3)c(-c3ccc(OC)cc3)nc2s1	104	nt	nt	-14
C=CCNC(=O)c1c(N)n(-c2cccc(C(=O)O)c2)c2nc3ccccc3nc12	nt	85	85	-52
COCCN1Cc2cccc(C(=O)NC3CCCCCC3)c2C1=O	96	87	85	3
Cc1ccc(OCC(=O)OCc2cc(=O)n3nc(-c4cccs4)sc3n2)cc1	108	91	86	nt
CCN(CC)CCCNC(=O)CN1C(=O)COc2ccc(C)cc21	98	nt	nt	-26
C=CCN(Cc1nc(-c2ccccc2)no1)C(=O)c1ccccc1	101	97	97	-31
C1=C(c2ccccc2)N2CCCCN=C2S1	110	92	104	17
Cc1onc(-c2ccccc2Cl)c1C(=O)N1CCc2ccccc21	99	nt	nt	-11
Cn1nnnc1SCCNCC#Cc1ccccc1	104	101	88	-10
COc1ccc2nc(NC(=O)C3CCN(C(=O)c4ccc(-c5noc(C)n5)cc4)CC3)sc2c1	105	nt	nt	-4
CCOc1ccc(N2C(=O)CN(C3CCCC3)[C@H]3CS(=O)(=O)C[C@H]32)cc1	115	nt	nt	-6
COc1ccc(NC(=O)c2ccc3c(c2)c(C)c(C)n3Cc2ccc(F)cc2)c(OC)c1	104	101	86	nt
Cc1ccccc1CSCC(=O)Nc1c[nH]c(=O)[nH]c1=O	97	111	92	nt
Cc1ccc(-c2n[nH]n3c2nc(=O)c2ccccc23)cc1	104	105	99	nt
O=c1c2c(F)c(F)c(F)c(F)c2on2c3c(cc12)CCCC3	nt	79	82	-58
Cc1cccc(N2CCN(C(=O)c3ccc(CS(=O)(=O)Cc4cccc(Cl)c4)o3)CC2C)c1 (stereo not drawn)	109	100	99	-10
COc1ccccc1-c1noc(-c2ccc(N3CCN(c4ccccc4)CC3)c([N+](=O)[O-])c2)n1	102	100	88	-1
Cc1cccc(N2CCN(C(=O)CN3C(=O)CSc4c3c(C)nn4-c3ccccc3)CC2)c1C	103	90	95	nt
CSc1ccc(CCNc2ncnc3onc(C)c23)cc1	109	88	97	nt
Cc1ccc(C(=O)O)cc1-n1c(C)nc2cccnc21	96	nt	nt	6
COc1ccc(N/C=C2/Sc3ccccc3NC2=O)cc1	102	nt	nt	-11

Fetched by compound from the list above (3):
SMILES	GIV Gai3 FP	Sa growth inh	Sa growth inh second temp	HCMV NEC inh
Cc1ccc(C(=O)O)cc1-n1c(C)nc2cccnc21	96	nt	nt	6
COc1ccc(N/C=C2/Sc3ccccc3NC2=O)cc1	102	nt	nt	-11
O=c1c2c(F)c(F)c(F)c(F)c2on2c3c(cc12)CCCC3	nt	79	82	-58
